Assay outcomes: PubChem, Johns Hopkins Ion Channel Center
KCNQ2 block: KCNQ2 potassium channel inhibitors, primary screen, cell-based, CHO-K1, FluxOR thallium flux, B-score (AID 2156) | 310,000 tested, 1.1% active | 20 min; hits give low values; only compounds with negative scores are shown here; some inactives read as strong as hits | B-score at 10 µM;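 active = fluorescence ratio B-score at most minus 3 library SDs, with starting brightness B-score within 2 library SDs, cut at about -5.5 in these data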
Target sequence (O88943 whole entry, looked up): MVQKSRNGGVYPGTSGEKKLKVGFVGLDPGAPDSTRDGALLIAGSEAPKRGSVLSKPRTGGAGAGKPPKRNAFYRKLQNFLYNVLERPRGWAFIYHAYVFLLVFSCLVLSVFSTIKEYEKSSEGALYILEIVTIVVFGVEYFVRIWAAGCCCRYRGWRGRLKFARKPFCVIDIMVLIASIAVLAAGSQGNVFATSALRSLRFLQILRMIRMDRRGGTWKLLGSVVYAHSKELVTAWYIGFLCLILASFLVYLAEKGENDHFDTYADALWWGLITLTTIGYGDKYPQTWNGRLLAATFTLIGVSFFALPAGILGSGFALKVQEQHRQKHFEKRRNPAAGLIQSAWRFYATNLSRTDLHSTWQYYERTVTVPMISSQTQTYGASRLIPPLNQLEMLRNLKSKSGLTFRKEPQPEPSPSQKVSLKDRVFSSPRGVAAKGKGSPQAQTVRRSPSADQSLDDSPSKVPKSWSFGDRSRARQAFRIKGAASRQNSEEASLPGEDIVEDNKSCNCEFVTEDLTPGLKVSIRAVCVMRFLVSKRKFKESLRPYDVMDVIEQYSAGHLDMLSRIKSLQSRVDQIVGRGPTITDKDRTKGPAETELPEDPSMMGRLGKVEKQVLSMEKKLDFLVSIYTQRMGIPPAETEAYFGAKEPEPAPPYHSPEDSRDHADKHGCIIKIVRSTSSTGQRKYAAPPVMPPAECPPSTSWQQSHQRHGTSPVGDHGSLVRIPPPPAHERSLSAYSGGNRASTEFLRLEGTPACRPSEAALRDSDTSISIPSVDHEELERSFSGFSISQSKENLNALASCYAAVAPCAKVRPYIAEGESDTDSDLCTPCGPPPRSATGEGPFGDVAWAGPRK
KCNQ2 block baseline: further read-out of KCNQ2 block, marked with its call; B-score; measured here: initial fluorescence intensity artifact check;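 brightness before thallium and not channel activity; 0 = typical well and far values either way flag optical interference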
* = called active by the depositor. This is a subset. The share of hits here may be higher or lower than overall.

How did CN1C(=O)C(Cc2cnc[nH]2)NC1=S (stereo unspecified) do in these assays?
KCNQ2 block: inactive; KCNQ2 block baseline: -0.06

Results for CCOC(=O)c1c(C)nc2ncccn12 ?
KCNQ2 block: inactive; KCNQ2 block baseline: 1.6

How did Cc1sc(NC(=O)c2ccco2)c(CN2CCN(c3ccccc3)CC2)c1C do in these assays?
KCNQ2 block: inactive; KCNQ2 block baseline: 0.48

How did CCOc1ccc(NC(=O)c2cc(C)nc3ccccc23)cc1 do in these assays?
KCNQ2 block: inactive; KCNQ2 block baseline: -0.06

What do the screens show for `COc1cccc(OCc2nc3ccccc3[nH]2)c1`?
KCNQ2 block: inactive; KCNQ2 block baseline: -0.5

Results for O=C(Nc1ccc(-c2cn3ccsc3n2)cc1)C1COc2ccccc2O1 (stereo unspecified) ?
KCNQ2 block: inactive; KCNQ2 block baseline: -0.11

Results for CC(CNC(=O)c1ccc(OC2CCN(Cc3ccccn3)CC2)cc1)c1ccccc1 (stereo unspecified) ?
KCNQ2 block: inactive; KCNQ2 block baseline: 0.1

What do the screens show for `COc1ccc(-n2nc3c(N4CCC(C(=O)NCCc5ccccc5C)CC4)nnc(C)c3c2C)cc1`?
KCNQ2 block: inactive; KCNQ2 block baseline: -0.55

Results for Cc1ccc(C(=O)N2CCCC2)cc1S(=O)(=O)Nc1ccccc1 ?
KCNQ2 block: inactive; KCNQ2 block baseline: -0.11

Results for S=c1[nH]nc(CSCc2ccccc2Cl)n1-c1ccccc1 ?
KCNQ2 block: inactive; KCNQ2 block baseline: -0.01

What do the screens show for `O=C(c1cccc(S(=O)(=O)NCc2ccccc2)c1)N1CCCCC1`?
KCNQ2 block: inactive; KCNQ2 block baseline: -1.9

What do the screens show for `COC(=O)c1ccc(C(=O)OC)c(NC(=O)/C=C/C(=O)O)c1`?
KCNQ2 block: inactive; KCNQ2 block baseline: 0.95

Results for O=C(CCCn1c(=S)[nH]c2cc3c(cc2c1=O)OCO3)NCc1ccccc1Cl ?
KCNQ2 block: inactive; KCNQ2 block baseline: -0.05

Results for COc1ccc(-c2[nH]ncc2-c2cnn(-c3ccccc3)c2)c(O)c1 ?
KCNQ2 block: -7.7*; KCNQ2 block baseline: 1.3*

What do the screens show for `CC(C)(C)OC(=O)[C@H](Cc1ccccc1)NC(=O)c1nc[nH]c1C(=O)N1CCN(c2ccccc2)CC1`?
KCNQ2 block: inactive; KCNQ2 block baseline: 1.4

What do the screens show for `C=CCn1c(=O)[nH]c2cc(C(=O)N3CCN(c4cc(C)ccc4C)CC3)ccc2c1=O`?
KCNQ2 block: inactive; KCNQ2 block baseline: 1.1

Results for CCOC(=O)N1CCC(c2[nH][nH]c(=O)c2C)CC1 ?
KCNQ2 block: inactive; KCNQ2 block baseline: -1.7

Results for O=C(CNc1ccccc1)N/N=C/c1ccc2c(c1)OCO2 ?
KCNQ2 block: inactive; KCNQ2 block baseline: -0.1

How did N/C(=N\OC(=O)COc1ccc(Cl)cc1)c1ccc(Cl)cc1 do in these assays?
KCNQ2 block: inactive; KCNQ2 block baseline: 0.51

Results for COC(=O)CCCC1=CC2=CC(=O)C(C)(OC(=O)c3cccs3)C(=O)C2=CN1Cc1ccc2c(c1)OCO2 (stereo unspecified) ?
KCNQ2 block: inactive; KCNQ2 block baseline: 0.14

Results for CCc1nc2ccccc2c(C(=O)Nc2ccc(F)cc2)c1C ?
KCNQ2 block: inactive; KCNQ2 block baseline: 0.69

What do the screens show for `Cc1ccc(OCC(=O)N2CC(C)OC(C)C2)c([N+](=O)[O-])n1` (stereo unspecified)?
KCNQ2 block: inactive; KCNQ2 block baseline: -0.22

What do the screens show for `COc1ccc(/C=N/NC(=O)CCC(=O)Nc2ccc(F)cc2)c(OC)c1`?
KCNQ2 block: inactive; KCNQ2 block baseline: 1.3

How did Cc1c(N2C(=O)C(=O)/C(=C(/O)c3ccccc3)C2c2ccc(F)cc2)c(=O)n(-c2ccccc2)n1C (stereo unspecified) do in these assays?
KCNQ2 block: inactive; KCNQ2 block baseline: 0.97

What do the screens show for `Cc1cc[n+](CC(=O)Nc2nc3ccccc3s2)cc1`?
KCNQ2 block: inactive; KCNQ2 block baseline: 0.13

How did O=C(Cn1c(=O)oc2ccccc21)Nc1ccc(S(=O)(=O)N2CCCCC2)cc1 do in these assays?
KCNQ2 block: inactive; KCNQ2 block baseline: -0.6

Results for O=C(CSc1nnc(-c2ccccc2Cl)n1Cc1ccco1)Nc1ccc2c(c1)OCCO2 ?
KCNQ2 block: inactive; KCNQ2 block baseline: 0.4

What do the screens show for `Cc1occc1C(=O)N1CCN(c2ccc(Cl)c(Cl)c2)CC1`?
KCNQ2 block: inactive; KCNQ2 block baseline: 1.2

Results for O=C(CSc1nc2ccccc2c(=O)n1-c1ccc(F)cc1)Nc1ccc(C(=O)O)cc1 ?
KCNQ2 block: inactive; KCNQ2 block baseline: -0.1

How did CCOC(=O)C1(CCc2ccccc2)CCN(C(=O)C2=C(C)OCCO2)CC1 do in these assays?
KCNQ2 block: inactive; KCNQ2 block baseline: 2.3

Results for O=C(C(Cc1ccccc1)N1C(=O)C2C3C=CC(C3)C2C1=O)N1CCCCCC1 (stereo unspecified) ?
KCNQ2 block: inactive; KCNQ2 block baseline: -0.01

How did O=[N+]([O-])c1cccc(OCc2cn3cccnc3n2)c1 do in these assays?
KCNQ2 block: inactive; KCNQ2 block baseline: -0.54

What do the screens show for `COC(=O)c1c(C)oc(C)c1S(=O)(=O)N1CCOCC1`?
KCNQ2 block: inactive; KCNQ2 block baseline: 1.2

How did CCn1cc(CNC(=O)/C=C/c2cnn(C)c2)c(C)n1 do in these assays?
KCNQ2 block: inactive; KCNQ2 block baseline: 1.3

Results for COc1ccc(Nc2ccc(N3C(=O)CCC3=O)cc2[N+](=O)[O-])cn1 ?
KCNQ2 block: inactive; KCNQ2 block baseline: -1.2

What do the screens show for `CC1(C)Oc2ccc3ccc(=O)oc3c2/C(=C/NNC(N)=S)C1=O`?
KCNQ2 block: inactive; KCNQ2 block baseline: 0.31

Compounds above that have a COOH group, in the order listed:
What do the screens show for `COC(=O)c1ccc(C(=O)OC)c(NC(=O)/C=C/C(=O)O)c1`?
KCNQ2 block: inactive; KCNQ2 block baseline: 0.95

Results for O=C(CSc1nc2ccccc2c(=O)n1-c1ccc(F)cc1)Nc1ccc(C(=O)O)cc1 ?
KCNQ2 block: inactive; KCNQ2 block baseline: -0.1

Of the compounds above, these contain a Cl atom:
Results for S=c1[nH]nc(CSCc2ccccc2Cl)n1-c1ccccc1 ?
KCNQ2 block: inactive; KCNQ2 block baseline: -0.01

Results for O=C(CCCn1c(=S)[nH]c2cc3c(cc2c1=O)OCO3)NCc1ccccc1Cl ?
KCNQ2 block: inactive; KCNQ2 block baseline: -0.05

How did N/C(=N\OC(=O)COc1ccc(Cl)cc1)c1ccc(Cl)cc1 do in these assays?
KCNQ2 block: inactive; KCNQ2 block baseline: 0.51

Results for O=C(CSc1nnc(-c2ccccc2Cl)n1Cc1ccco1)Nc1ccc2c(c1)OCCO2 ?
KCNQ2 block: inactive; KCNQ2 block baseline: 0.4

What do the screens show for `Cc1occc1C(=O)N1CCN(c2ccc(Cl)c(Cl)c2)CC1`?
KCNQ2 block: inactive; KCNQ2 block baseline: 1.2

(further entries)
What do the screens show for `CC(=O)Nc1ccc(NC(=O)C2CC(=O)Nc3nc4ccccc4n32)cc1` (stereo unspecified)?
KCNQ2 block: inactive; KCNQ2 block baseline: -1.8

What do the screens show for `O=C(c1cccc(C(F)(F)F)c1)N1CCC(O)(CS(=O)(=O)Cc2ccccc2Cl)CC1`?
KCNQ2 block: inactive; KCNQ2 block baseline: -0.09

What do the screens show for `COC(=O)c1ccc(C(=O)OC)c(NC(=O)COC(=O)C2CC2C)c1` (stereo unspecified)?
KCNQ2 block: inactive; KCNQ2 block baseline: 0.49

Results for COc1cc(C(NC=O)C(=O)Nc2c(C)cccc2C)ccc1O (stereo unspecified) ?
KCNQ2 block: inactive; KCNQ2 block baseline: 0.05

Results for CSCC[C@H](NC(=O)OC(C)(C)C)C(=O)N/N=C/c1ccc2nccnc2c1 ?
KCNQ2 block: inactive; KCNQ2 block baseline: -0.01

What do the screens show for `COc1ccc(N(CC(=O)NCc2ccc3c(c2)OCO3)S(C)(=O)=O)cc1OC`?
KCNQ2 block: inactive; KCNQ2 block baseline: 0.17

How did CSc1nnc(C)c(/C=C/NOCc2ccc(Cl)cc2)n1 do in these assays?
KCNQ2 block: inactive; KCNQ2 block baseline: 1.8

Results for O=C(COc1ccc(-n2cnnn2)cc1)NC1CCCCC1 ?
KCNQ2 block: inactive; KCNQ2 block baseline: -0.03

What do the screens show for `CCc1cc2c(Nc3ccc(O)cc3)nc(C)nc2s1`?
KCNQ2 block: inactive; KCNQ2 block baseline: -1

What do the screens show for `COc1ccc(N(CC(=O)N/N=C/c2ccc(OC3CSC3)cc2)S(=O)(=O)c2ccccc2)cc1`?
KCNQ2 block: inactive; KCNQ2 block baseline: -0.16

What do the screens show for `CCOC(=O)c1ccc(NC(=O)CSc2nc3c(c(=O)n2CC)SC(C)C3)cc1` (stereo unspecified)?
KCNQ2 block: inactive; KCNQ2 block baseline: 1.4

What do the screens show for `CC(C)NC(=O)c1ccccc1NC(=O)CCS(=O)(=O)Cc1ccccc1`?
KCNQ2 block: inactive; KCNQ2 block baseline: 0.02

3 entries picked at random from those above, as already listed:
What do the screens show for `COc1ccc(N(CC(=O)N/N=C/c2ccc(OC3CSC3)cc2)S(=O)(=O)c2ccccc2)cc1`?
KCNQ2 block: inactive; KCNQ2 block baseline: -0.16

What do the screens show for `CC(C)NC(=O)c1ccccc1NC(=O)CCS(=O)(=O)Cc1ccccc1`?
KCNQ2 block: inactive; KCNQ2 block baseline: 0.02

What do the screens show for `COc1ccc(N(CC(=O)NCc2ccc3c(c2)OCO3)S(C)(=O)=O)cc1OC`?
KCNQ2 block: inactive; KCNQ2 block baseline: 0.17

Later entries:
What do the screens show for `Nc1nc(NC(=O)c2cccnc2)nn1-c1ccccc1`?
KCNQ2 block: inactive; KCNQ2 block baseline: 0.76

What do the screens show for `Cc1c(-c2cccc(Cl)c2)nc2ccccc2c1C(=O)OC/C(O)=C(\C#N)c1nc2ccccc2[nH]1`?
KCNQ2 block: inactive; KCNQ2 block baseline: -0.07

How did COc1ccc2[nH]c(=O)c(COC(=O)c3ccco3)cc2c1 do in these assays?
KCNQ2 block: inactive; KCNQ2 block baseline: -0.88

Results for Cc1ccc(Nc2nc(N)nc(CN3CCN(Cc4ccc5c(c4)OCO5)CC3)n2)cc1Cl ?
KCNQ2 block: inactive; KCNQ2 block baseline: 0.68

What do the screens show for `COc1ccc(CN2CCC(C(N)=O)CC2)cc1OCc1ccccc1`?
KCNQ2 block: inactive; KCNQ2 block baseline: 1.8

What do the screens show for `COc1cc(C(=O)N2CCN(C(=O)CC(C)C)CC2)cc(OC)c1OC`?
KCNQ2 block: inactive; KCNQ2 block baseline: -1.3

Results for Cc1nc(SCC(O)CO)c([N+](=O)[O-])[nH]1 (stereo unspecified) ?
KCNQ2 block: inactive; KCNQ2 block baseline: 0.51

How did Cc1ccc(SCC(=O)NCCN2C(=O)CSC2=O)c(C)c1 do in these assays?
KCNQ2 block: inactive; KCNQ2 block baseline: 0.87

Results for CCOC(=O)C(C)Sc1nc2c(cnn2-c2ccc(F)cc2)c(=O)[nH]1 (stereo unspecified) ?
KCNQ2 block: inactive; KCNQ2 block baseline: 1.1

Results for COc1ccc(C)cc1NC(=O)CCN1CCN(c2ccccc2F)CC1 ?
KCNQ2 block: inactive; KCNQ2 block baseline: -1.4

How did CN1OC(COC(=O)c2ccc(Cl)cc2Cl)CC1c1ccccc1 (stereo unspecified) do in these assays?
KCNQ2 block: inactive; KCNQ2 block baseline: 0.54

What do the screens show for `N#C/C(=C\c1c(Oc2ccccc2Cl)nc2ccccn2c1=O)C(=O)NC1CCS(=O)(=O)C1` (stereo unspecified)?
KCNQ2 block: inactive; KCNQ2 block baseline: -1.7

Results for O=C(/C=C/c1ccccc1[N+](=O)[O-])NCc1cccnc1 ?
KCNQ2 block: inactive; KCNQ2 block baseline: 0.02

What do the screens show for `CN(Cc1ccccc1)c1nc2c(c(=O)[nH]c(=O)n2C)n1Cc1ccccc1`?
KCNQ2 block: inactive; KCNQ2 block baseline: 0.58

What do the screens show for `CC1(C)CC(=O)c2cc(OCC(=O)NCCCN3CCN(c4ccccc4F)CC3)ccc2O1`?
KCNQ2 block: inactive; KCNQ2 block baseline: 1.6

What do the screens show for `Cc1cc(OCCSc2nnc(-c3cccs3)n2C)ccc1Cl`?
KCNQ2 block: inactive; KCNQ2 block baseline: 0.16

What do the screens show for `C=CCOC(=O)Nc1c(C(=O)OC)[nH]c2ccc(Cl)cc12`?
KCNQ2 block: inactive; KCNQ2 block baseline: 0.31

What do the screens show for `CCC1CCCCN1C1Sc2ccc(C(=O)OC)cc2NC1=O` (stereo unspecified)?
KCNQ2 block: inactive; KCNQ2 block baseline: 0.05

What do the screens show for `CCCCNC(=O)CCn1c(=S)[nH]c2cc3c(cc2c1=O)OCO3`?
KCNQ2 block: inactive; KCNQ2 block baseline: 2.3

How did O=C1COc2ccc(C(=O)CSc3nnc(Cc4cccs4)n3-c3ccccc3)cc2N1 do in these assays?
KCNQ2 block: inactive; KCNQ2 block baseline: 1.2

Results for O=C(N/N=C/c1ccc(Cl)cc1)c1sccc1OCc1ccc(F)cc1 ?
KCNQ2 block: inactive; KCNQ2 block baseline: 0.34

What do the screens show for `COc1ccc(C2C(C#N)=C(N)Oc3n[nH]c(C)c32)cc1CSc1ccccn1` (stereo unspecified)?
KCNQ2 block: inactive; KCNQ2 block baseline: -0.61

How did Cc1cnc(C(=O)Nc2ccc(S(=O)(=O)NCC(C)C)cc2)cn1 do in these assays?
KCNQ2 block: inactive; KCNQ2 block baseline: 3

Results for CCOc1ccccc1N1CCN(CC(=O)c2c(N)n(C)c(=O)n(C)c2=O)CC1 ?
KCNQ2 block: inactive; KCNQ2 block baseline: 2
